Proteasome disasm: inhibitors of ATP-driven 26S proteasome dissociation, primary screen, biochemical, bead-based flow cytometry, GFP-tagged proteasome; anti-FLAG beads, GFP-proteasome disassembly; inhibition of disassembly, % (test concentration not listed); 24,000 tested, 0.2% active; AID 751, 2007;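 active = above 40%; inconclusive = likely self-fluorescent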;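 also: plate controls were ATP control with full disassembly for no effect and ATP-gamma-S intact proteasomes for full effect; higher percent means more bead fluorescence retained so stronger block of disassembly; stock transfer was 100 nL into about 10 µL; wells with too few beads may also be inconclusive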
VCAM-1 up: enhancers of VCAM-1 display on endothelial cells, cell-based, plate reader, pooled HUVEC, TNFa stimulus (AID 455); HUVEC TNFa-induced VCAM-1 immunofluorescence, plate reader; numbers were filed only for top-ranked candidate wells; augmentation, % at 5 µM; 10,000 tested, 0.2% active;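 active = a compound raising TNF-alpha-driven VCAM-1 surface staining, with its hit status upheld on visual or statistical review; inactive = the rest, including hits rejected on review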;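 also: 0% = TNFa with vehicle and 100% = strongest image-checked hit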
* hit, by the source's call; i = inactive; ? = inconclusive; . = not tested or not shown.

Proteasome disasm	VCAM-1 up	SMILES
0.6	.	COc1cccc(-c2cc(C(F)(F)F)nc(-n3cncn3)n2)c1
-2.1	.	Cn1c(=O)cc(OCCCC(=O)NCc2ccc3c(c2)OCO3)c2ccccc21
6.9	i	CCc1nnc(NC(=O)C2Cc3ccccc3CN2S(=O)(=O)c2cccs2)s1 (configuration not stated)
0.4	.	O=c1c2ccccc2nc2c3ccccc3c(N3CCOCC3)nn12
-1.3	i	O=c1cc(-c2ccco2)oc2ccc(Cl)cc12
-3.9	.	Brc1cccc(-c2nnc3sc(CN4CCC5(CC4)OCCO5)cn23)c1
1.5	i	CCn1c(C(=O)N2CCCC(C(=O)NCCCc3ccccc3)C2)cc2sccc21 (configuration not stated)
1.8	.	COc1cccc(C2CC(=O)N3CN(c4cccc(Cl)c4C)CSC3=C2C#N)c1OC (configuration not stated)
-2.7	i	O=C(NC1CCS(=O)(=O)C1)c1c(NC(=O)C2COc3ccccc3O2)sc2c1CCCC2 (configuration not stated)
19	i	N#CC1=C(SCC(=O)c2cc3ccccc3oc2=O)NC(=O)C(C#N)C12CCCC2 (configuration not stated)
1.4	i	COc1cccc(CN(C(=O)c2cc3ccccc3oc2=O)C2CC2)c1
0.1	.	COc1cccc(NC(=O)CCS(=O)(=O)c2cccs2)c1
1.2	.	CCCN(CCC)C(=O)Cn1c(=O)n(CCCCC(=O)NC2CCCC2)c(=O)c2ccccc21
3.1	i	O=P(CCNCc1ccco1)(c1ccccc1)c1ccccc1
-0.5	i	CC(C)C(=O)Nc1nnc(CCc2nnc(NC(=O)C(C)C)s2)s1
-0.4	.	O=C(CSc1nc2c(c(=O)n1-c1ccc(Cl)cc1)SCC2)Nc1nccs1
-0.2	i	Cc1nc(CNS(=O)(=O)c2cccc(F)c2)cs1
-0.9	i	Brc1ccccc1-c1nc(-c2ccccc2)no1
-1.6	.	Cc1cccc(OCc2nc(C#N)c(N3CC(C)CC(C)C3)o2)c1 (configuration not stated)
1.4	i	CCOC(=O)c1ccc(NC(=O)N2CCN(CCc3ccccc3)CC2)cc1
-1.0	i	NC(=O)CSCc1ccc(Br)cc1
1.8	i	CCn1c(=O)cc(SCC(=O)N2CCN(C3CCCCC3)CC2)c2ccccc21
-1.2	i	O=C(Cn1cnc2c(nnn2Cc2ccc(Cl)cc2)c1=O)NCC1CCCO1 (configuration not stated)
-0.7	i	Cc1ccc(N2CC(C(=O)Nc3ccc4c(c3)OCO4)CC2=O)cc1 (configuration not stated)
-0.9	.	COc1ccc(-c2nnc(SCC(=O)Nc3cc(F)ccc3C)o2)cc1
-0.1	i	O=C(NC1CCCCC1)n1c(=O)oc2ccc(Cl)cc21
0.3	i	CN1CCN(CC(=O)N2c3ccccc3C(C)(c3ccccc3)CC2(C)C)CC1 (configuration not stated)
0.9	.	O=C(O)CCCCCNCc1ccncc1
-0.8	i	Cc1ccc(C(C)C)c(OCc2nnc(SCC(=O)Nc3ncc(C)s3)n2C)c1
1.1	i	CC1=C(C(N)=O)C(c2ccccn2)n2nc(SCc3ccccc3)nc2N1 (configuration not stated)
-1.1	.	CC(=O)NC(CCS(C)(=O)=O)C(=O)Nc1ccc(F)cc1Cl (configuration not stated)
-0.7	.	CCOC(=O)c1[nH]c(C)c(C(=O)Nc2cc(Cl)ccc2C)c1C
-1.7	.	CCOC(=O)C(C)n1cnc2c(nnn2-c2ccc(C)cc2)c1=O (configuration not stated)
-0.4	i	Cc1noc(C)c1COC(=O)c1ccccc1Oc1ccccc1
-1.6	.	COc1ccc(Nc2ncccc2C(=O)Nc2ccccc2)cc1
1.5	.	CCOCCn1c(=O)c2c(nc3n2CCN3c2ccc(CC)cc2)n(C)c1=O
0.3	i	CC1CCC(NC(=O)C2(C)CCC(=O)N2Cc2cccnc2)CC1 (configuration not stated)
0.0	.	O=C(NCCC1=CCCCC1)c1cnc2n(c1=O)CCS2
0.1	i	COc1ccc(CN(C2CCCC2)S(=O)(=O)c2ccc(-n3cnnn3)cc2)cc1OC
0.0	i	Cc1cc(C)n(CC(=O)NC2CCCCC2)n1
-0.1	i	Cc1cc(NS(=O)(=O)c2ccc(Nc3nc(-c4sc(N)nc4C)cs3)cc2)no1
0.4	.	CC(C)c1ccc(OCc2ccc(C(=O)N3CCN(c4ccccn4)CC3)cc2)cc1
2.6	.	O=C(Nc1ccc2oc(-c3ccccc3F)nc2c1)c1ccc2c(c1)OCCO2
-1.6	i	O=C(CN1CCOCC1)N1CCN(C(=O)CN2CCOCC2)CC1
-0.5	i	O=C(CSc1nnc(-c2ccc(Br)cc2)n1C1CCCCC1)N1CCCC1
-1.3	.	CCc1nnc(NC(=O)C(C)N2C(=O)C3C4C=CC(C4)C3C2=O)s1 (configuration not stated)
5.7	i	Cc1onc(-c2ccccc2)c1C(=O)Nc1sc2c(c1C(N)=O)CCC2
2.2	.	O=C(CSc1nc2ccccc2c(=O)n1Cc1ccc(C(=O)NC2CC2)cc1)NCc1ccco1
-2.3	.	COC(=O)c1c(C)n(-c2ccccc2)c2ccc(O)cc12
-1.0	i	COc1cc(C)c(Br)cc1S(=O)(=O)N1CCOCC1
-1.9	.	COc1cc2[nH]c(=S)n(CCN3CCCCC3C)c(=O)c2cc1OC (configuration not stated)
-0.5	.	O=C(COC(=O)C1CC(=O)N(C2CCCCC2)C1)c1ccc(F)cc1 (configuration not stated)
1.0	.	O=C(O)c1ccc(NS(=O)(=O)c2cccc3cccnc23)cc1
0.2	.	O=c1c2ccccc2nc(N2CCN(c3ccccc3)CC2)n1Cc1ccccc1
1.6	.	COc1ccc(CCNC(=O)C2CCN(S(=O)(=O)N3CCCCC3)CC2)cc1OC
-1.4	.	COc1cc2c(=O)n(Cc3ccccc3)c(=O)n(CC(=O)C(C)(C)C)c2cc1OC
6.8	.	Cc1[nH]n(C(C)(C)C)c(=O)c1Sc1ccc(Cl)cc1
-0.6	i	CCc1c(C)c2c(C)nn(-c3ccccc3)c2[nH]c1=O
11	.	CCOc1ccc(OCC)c(NC(=O)C2CCN(S(=O)(=O)c3c(C)noc3C)CC2)c1
1.9	i	Clc1ccc(C2Nc3ccccc3-n3cccc32)cc1 (configuration not stated)

Continuation:
Proteasome disasm	VCAM-1 up	SMILES
-1.4	i	O=C(c1cccc(C(=O)N2CCN(c3ccc(F)cc3)CC2)c1)N1CCN(c2ccc(F)cc2)CC1
0.4	.	CCCCN(C)CCNC(=O)Cn1c(=O)sc2ccccc21
1.0	i	O=C(NC1CCCCC1)N(Cc1ccc(F)cc1)Cc1nc2ccccc2c(=O)[nH]1
-0.3	.	Cc1cc(NC(=O)CSc2ccc3nnc(-c4ccc(F)cc4)n3n2)no1
-0.9	i	O=C(CSCc1ccc(F)cc1)NC1CCCC1
0.4	.	COc1cccc(C2=NOC(C(=O)Nc3cccc(C(C)=O)c3)C2)c1 (configuration not stated)
-0.6	i	CCS(=O)(=O)c1nc2ccccc2n1Cc1ccccc1Cl
1.7	.	OCc1ccccc1N=c1ssnc1Cl
-0.8	.	CCOC(=O)c1oc2ccccc2c1NC(=O)COc1ccc(F)cc1
-0.4	.	O=C(NCCCN1CCN(c2cccc(Cl)c2)CC1)c1cccc(N2CCCC2=O)c1
-1.0	i	O=C(Nc1ccccc1)N1CCC(c2ccccc2)C1 (configuration not stated)
-0.5	.	CC(C)CC(NC(=O)c1ccco1)C(=O)Nc1ccc2c(c1)OCCO2 (configuration not stated)
-1.7	.	CC1CCc2nn(CC(=O)NC3CCCC(C)C3C)cc2C1 (configuration not stated)
2.4	i	Cc1nnc(NC(=O)c2ccccc2F)s1
-0.2	.	CCCS(=O)(=O)N1CCCC(C(=O)NCCCOC(C)C)C1 (configuration not stated)
-0.6	.	O=C(Nc1ccc(Br)cc1)C1CCCN1S(=O)(=O)c1cccs1 (configuration not stated)
1.2	.	CCOc1ccc(C2CC(c3cccc(Cl)c3)n3nc(N)nc3N2)cc1 (configuration not stated)
3.1	.	CCOC(=O)Cn1c(=O)oc2cc(S(=O)(=O)Nc3ccc(N(CC)CC)cc3C)ccc21
-1.9	i	O=C(NCc1cccnc1)c1ccc(Cl)c(Cl)c1
3.5	.	COc1cc2c(cc1OC)C1=C(C#N)CN(CC(=O)O)CN1CC2

Given comma-delimited: 4 of the compounds above
SMILES,Proteasome disasm,VCAM-1 up
CC1CCc2nn(CC(=O)NC3CCCC(C)C3C)cc2C1 (configuration not stated),-1.7,.
Cc1nnc(NC(=O)c2ccccc2F)s1,2.4,i
CCCS(=O)(=O)N1CCCC(C(=O)NCCCOC(C)C)C1 (configuration not stated),-0.2,.
O=C(Nc1ccc(Br)cc1)C1CCCN1S(=O)(=O)c1cccs1 (configuration not stated),-0.6,.

Individual results from above:
Entry for O=C(NC1CCS(=O)(=O)C1)c1c(NC(=O)C2COc3ccccc3O2)sc2c1CCCC2 (configuration not stated) under Proteasome disasm: -2.7
Entry for NC(=O)CSCc1ccc(Br)cc1 under Proteasome disasm: -1.0

(more compounds)
Proteasome disasm	VCAM-1 up	SMILES
0.3	i	CSc1nc2ccc(S(=O)(=O)N3CCOCC3)cc2s1
-14	.	COc1ccc(CCNC(=O)C2CCN(c3nn4c(=O)cc(C)nc4s3)CC2)cc1OC
-2.0	.	CC1CCN(C(=O)CSc2ccc3nnc(-c4ccccc4)n3n2)CC1
0.4	.	Cc1oc(-c2ccccc2F)nc1CS(=O)(=O)CC(=O)N1CCc2ccccc21
1.8	i	CCC(=O)c1cc(F)c(N2CCN(C(=O)c3ccco3)CC2)cc1C
-0.4	.	COc1ccc(C(=O)NCc2nnc(SCC(=O)N3CCc4ccccc43)o2)cc1OC
1.4	.	CCC(=O)Oc1ccc(C2N(C(=O)CC)CCN2S(=O)(=O)c2ccc(C)cc2)cc1OC (configuration not stated)
0.7	.	COc1ccc(OC)c(C2SCCN2S(=O)(=O)c2cccc(C(F)(F)F)c2)c1 (configuration not stated)
1.8	.	COCCN1C(=O)c2oc3ccccc3c(=O)c2C1c1ccc(C(=O)OC)cc1 (configuration not stated)
-0.2	i	CN1CCc2c(sc3c2c(=O)n(-c2ccccc2)c2nnc(SCc4ccccc4)n32)C1
-0.1	i	Oc1c(I)cc(Cl)c2cccnc12
-1.3	.	O=C(CCn1c(=O)[nH]c2ccsc2c1=O)N1CC(=O)N(CCc2ccccc2)C(=O)C1
2.1	i	O=C(Nc1cccc(OCC(=O)N2CCOCC2)c1)C1CCCCC1
1.6	i	CCc1cc(=O)oc2c(CN3CCN(C)CC3)c(O)c(Cl)cc12
-1.3	.	CCc1ccc(S(=O)(=O)NCc2csc(C)n2)s1
0.6	.	Nc1nc2n(n1)C(c1ccco1)CC(c1ccc(F)cc1)N2 (configuration not stated)
?	i	C=CCC(Nc1ccco1)c1ccccc1 (configuration not stated)
0.7	i	CCOC(=O)N1CCC(N(C(=O)Nc2ccc(Cl)c(Cl)c2)C(C)CC)CC1 (configuration not stated)
70*	i	CCOC(=O)c1c(C)[nH]c(C(=O)Cn2c(=O)c3c(ncn3CC)n(Cc3ccccc3)c2=O)c1C
3.5	i	CCn1c(CCNC(=O)c2ccc(OC)c(OC)c2)nc2ccccc21

Arranged by SMILES length (lowest first): 3 of the compounds above.
Proteasome disasm	VCAM-1 up	SMILES
1.8	.	COCCN1C(=O)c2oc3ccccc3c(=O)c2C1c1ccc(C(=O)OC)cc1 (configuration not stated)
-0.4	.	COc1ccc(C(=O)NCc2nnc(SCC(=O)N3CCc4ccccc43)o2)cc1OC
70*	i	CCOC(=O)c1c(C)[nH]c(C(=O)Cn2c(=O)c3c(ncn3CC)n(Cc3ccccc3)c2=O)c1C

(next part)
Proteasome disasm	VCAM-1 up	SMILES
-0.9	.	Cc1ccc(S(=O)(=O)c2c(C)nn(C(C)(C)C)c2OC(=O)C2CCCC2)cc1
-0.8	.	CCOC(=O)C1CCCN(c2c(NCC3CCCO3)c(=O)c2=O)C1 (configuration not stated)
0.1	.	CCn1c(=NC(=O)CSCC(=O)Nc2nccs2)sc2ccccc21
0.8	.	COc1ccc(-c2ccc(C(=S)N3CCN(C(C)=O)CC3)o2)cc1
0.2	.	CCOc1cc(C#N)c(NC(=O)Cn2nnc3ccccc32)cc1OCC
-0.9	.	CCOC(=O)N1CCN(C(=O)CSc2nnc(-c3cccc(OC)c3)o2)CC1
1.7	.	CCOC(=O)c1c(C)c(C(=O)NCCOC)c(C)n1CC
2.7	i	Cc1cc(C(=O)CSCc2nnc3n(CCC(C)C)c(=O)c4ccccc4n23)c(C)n1C
-1.2	i	Cc1ccc(SCCNS(=O)(=O)c2ccc(F)cc2)cc1
-1.7	.	CCCS(=O)(=O)n1nc(-c2ccc(Br)cc2)cc1N
3.6	.	Cc1cccn2c(=O)c3cc(C(=O)N4CCN(c5ccccc5)CC4)n(C)c3nc12
-0.3	.	Cc1cc(C)cc(-n2nnc(C(=O)NCc3ccccc3)c2N)c1
0.4	.	COc1cccc(-n2nnc3c(=O)n(CC(=O)N4CCC(C)CC4)cnc32)c1
-0.7	.	Cn1nc(-c2ccc(Cl)cc2)c2cc(C(=O)N3CCOCC3)sc21
1.7	.	CCCCN(C)CCn1c(=S)[nH]c2ccc(N3CCOCC3)cc2c1=O
1.7	i	CCCCCc1c(C)nc(Nc2nc(C)c3cc(OC)ccc3n2)[nH]c1=O
2.2	i	CCn1cc(C2=NCC(C)O2)c2ccccc21 (configuration not stated)
-0.2	.	CCCOC(=O)C1=C(C)NC2=C(C(=O)C(C(=O)OC)C(C)C2)C1c1ccc(N(CC)CC)cc1 (configuration not stated)
0.0	.	CCOc1cc2[nH]c(=O)n(Cc3cccc(OC)c3)c(=O)c2cc1OCC
-3.2	.	Cc1cc(C)c(C#N)c(SCS(=O)Cc2ccccc2)n1 (configuration not stated)
-2.1	.	COc1ccc(OC)c(C2CC(=O)c3c([nH]c(C(=O)OC(C)C)c3C)C2)c1 (configuration not stated)
-0.5	i	COc1cc(OC)c(-c2nn3c(C4CCCCC4)nnc3s2)cc1OC

From PubChem

A portion of the library; count on the stated rates, not on these rows.
